NPR1 antag = human Npr1 receptor antagonism; P16066; 76,000 tested, 1.6% active; Potency, µM (titrated, usually from 46.3 µM), inactives show top-dose activity change, negative = inhibition, most hits filed as inhibitors; AID 1347048; HEK293 hNpr1 GloSensor cGMP, ANP-stimulated luminescence; active = well fitted inhibition curve with a large enough effect; inconclusive = small, poorly fitted or top-dose-only effect; inactive = no such curve, though single readings can be large or run the other way;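 note: nearly all actives have a fitted effect of over 60% in size; nearly all hits also lower the signal before the agonist is added; a reference antagonist and vehicle were the controls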
Target sequence (P16066 whole entry, looked up): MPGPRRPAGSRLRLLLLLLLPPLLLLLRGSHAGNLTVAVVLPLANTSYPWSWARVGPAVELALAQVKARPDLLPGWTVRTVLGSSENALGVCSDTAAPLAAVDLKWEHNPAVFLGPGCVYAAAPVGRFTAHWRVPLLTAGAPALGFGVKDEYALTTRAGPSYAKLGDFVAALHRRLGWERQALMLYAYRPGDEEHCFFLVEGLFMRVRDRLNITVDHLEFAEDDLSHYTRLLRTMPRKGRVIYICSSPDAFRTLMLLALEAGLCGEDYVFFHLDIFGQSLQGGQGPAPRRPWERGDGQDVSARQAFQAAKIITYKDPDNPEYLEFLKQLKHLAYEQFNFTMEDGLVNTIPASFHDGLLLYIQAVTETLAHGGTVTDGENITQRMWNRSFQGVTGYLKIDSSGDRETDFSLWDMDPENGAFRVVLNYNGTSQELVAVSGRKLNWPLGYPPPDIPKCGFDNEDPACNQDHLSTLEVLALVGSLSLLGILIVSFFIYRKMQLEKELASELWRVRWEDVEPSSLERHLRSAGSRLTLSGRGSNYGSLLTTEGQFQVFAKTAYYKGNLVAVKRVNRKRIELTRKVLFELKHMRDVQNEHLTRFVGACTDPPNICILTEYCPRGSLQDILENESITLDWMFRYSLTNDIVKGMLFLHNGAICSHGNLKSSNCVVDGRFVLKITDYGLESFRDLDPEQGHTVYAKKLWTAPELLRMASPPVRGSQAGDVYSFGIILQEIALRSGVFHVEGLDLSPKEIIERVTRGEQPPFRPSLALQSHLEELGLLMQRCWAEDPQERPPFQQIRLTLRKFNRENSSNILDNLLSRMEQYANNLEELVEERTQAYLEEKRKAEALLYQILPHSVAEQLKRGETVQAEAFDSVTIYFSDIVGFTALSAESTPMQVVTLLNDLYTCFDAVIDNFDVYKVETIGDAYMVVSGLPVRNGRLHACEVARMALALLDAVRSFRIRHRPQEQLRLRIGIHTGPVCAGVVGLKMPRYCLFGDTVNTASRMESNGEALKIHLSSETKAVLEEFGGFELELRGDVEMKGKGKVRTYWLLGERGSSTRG
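Compound pre-incubated 30 min at room temperature on GloSensor-loaded HEK293 cells stably carrying hNpr1 and the pGS-40F cGMP biosensor. Stimulation uses hNppA at 0.1 nM final; luminescence is taken at baseline and 20 min post-agonist.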
* hit, by the source's call; ? = inconclusive; [ ] = remark or other dose. % is set by controls: 0 for no effect and ±100 for the full control effect; potency is the fitted concentration of half-maximal effect. The list is partial. The share of hits here may be higher or lower than overall.

| SMILES | NPR1 antag |
| --- | --- |
| N#Cc1ccc(C(=O)N2CCN(C(=O)c3nnn4c3COC(c3ccc(F)cc3)C4)CC2)cc1 (stereo unspecified) | -26% |
| COC[C@@H]1CCCN1Cc1cc2cc3c(cc2[nH]c1=O)OCO3 | 2% |
| COCCNc1ncccc1-c1noc([C@@H]2CCCN2C2CCN(C(C)=O)CC2)n1 | 5%[70.6 µM] |
| C=CCN1CCN(c2nc(C)nc3c2CCN(C(=O)N(C)C)CC3)CC1 | 1% |
| CC(C)C[C@@H]1N[C@H](C(=O)NCc2ccco2)Cc2c[nH]c3cccc1c23 | 4%[70.6 µM] |
| COc1ccc(OC)c(S(=O)(=O)N[C@H]2CO[C@H]3[C@@H]2OC[C@H]3OC(=O)Nc2ccc(Oc3ccccc3)cc2)c1 | 8.9µM* |
| COc1cc(-c2cn(C)c(=O)n3cc(COc4ccnn4C)nc23)ccn1 | 4%[70.6 µM] |
| COCc1cn(C[C@H]2C[C@@H](NS(C)(=O)=O)[C@H](O)[C@@H]2O)nn1 | -15%[70.6 µM] |
| CC(C)CCC(=O)N1CCC2(CC1)CC(O)CCO2 (stereo unspecified) | 3% |
| CNC(=O)c1cc(-c2ccc(CO)cc2)cc2c1OCCN2Cc1cccnc1 | 10%[70.6 µM] |
| O=C(c1ccc(-c2ccc(N3CCSCC3)nc2)cc1)N1CCCCC1 | 10µM* |
| COCC(=O)N(C)Cc1ccccc1C(F)(F)F | 13%[70.6 µM] |
| COc1cc2c(cc1OC)C(CNC(=O)c1ccc(Cl)cc1)N(C(=O)Nc1cccc(F)c1)CC2 (stereo unspecified) | 4% |
| Cn1c(CO[C@H]2CN(C(=O)c3ccc(Cl)cc3)C[C@H]2F)nc2ccccc21 | -5%[70.6 µM] |
| COc1ccc(OC)c(NC(=O)COc2ccc(-c3nnc4n3CCCC4)cc2)c1 | 1% |

New compounds follow
| SMILES | NPR1 antag |
| --- | --- |
| O=C(Nc1cccc(F)c1)c1ccc(N2CC3CC(C2)[C@H]2CCCC(=O)N2C3)nc1 (stereo partly specified) | -10% |
| CC(=O)c1ccc(NC(=O)N[C@H]2CO[C@H]3[C@@H]2OC[C@@H]3Nc2nccc(C(C)(C)C)n2)cc1 | 5% |
| CCCc1cc(CN(C)C(=O)c2cn(CC(=O)N(CC)CC)nn2)[nH]n1 | 2% |
| Cn1c(=O)oc2ccc(C(=O)N[C@H](C3CCNCC3)C3CC(O)C3)cc21 (stereo partly specified) | -1% |
| Cc1nn(C)cc1C(=O)NCCn1c(C)cnc1C1CC1 | 4% |
| CN1c2cc(C(=O)NCc3ccccc3Br)ccc2C(=O)N2CCCC21 (stereo unspecified) | 0% |
| COc1ccc(-n2nc(C)c([C@@H]3C=C[C@@H](NCc4ccc(C(C)C)cc4)C3)c2C)cc1 | ? |
| COc1cc(=O)n2c(c1C(=O)Nc1cc(Cl)ccc1F)CCCC2 | 0% |
| CC(C)c1nccn1CCCNc1nc(-c2ccncc2)nc2c1cnn2C | -1% |
| O=c1cc(-c2ccccn2)oc2c(NC3CCOCC3)nccc12 | -1%[70.6 µM] |
| N[C@H]1CN(C(=O)C2CCN(C(=O)c3ccccn3)CC2)C[C@@H]1C1CC1 | 3% |
| c1ccc(CCc2nc3nccc(-c4ccco4)n3n2)cc1 | -2% |
| O=C(NCc1ccncc1)C1CN(S(=O)(=O)c2cccnc2)CC12CCOCC2 (stereo unspecified) | -10% |
| COc1ccc(C(C)NC(=O)c2cc3c(n2C)CCN(Cc2ccccc2)C3)cc1OC (stereo unspecified) | 4% |
| COc1ccc(-c2cn3c(n2)CO[C@@H](CNC(C)=O)C3)cc1 | 1%[70.6 µM] |

Entries above containing a furan ring, fused or not (two):
| SMILES | NPR1 antag |
| --- | --- |
| CC(C)C[C@@H]1N[C@H](C(=O)NCc2ccco2)Cc2c[nH]c3cccc1c23 | 4%[70.6 µM] |
| c1ccc(CCc2nc3nccc(-c4ccco4)n3n2)cc1 | -2% |

(further entries)
| SMILES | NPR1 antag |
| --- | --- |
| Cc1cccc(C)c1NC(=O)N1CCC(OC2CCN(S(C)(=O)=O)CC2)CC1 | 1% |
| O=C1CC(c2ccccc2)N(Cc2ccncc2)CCCN(C(=O)CC2CCCC2)CCN1 (stereo unspecified) | -1% |
| O=C(Nc1ncc(-c2ccccc2)c2c1OCC2)c1ccncc1 | 1%[70.6 µM] |
| COc1ccc(C(=O)NCCn2cccc2-c2nc(-c3ccccc3)no2)cc1F | -16% |
| COCCNC(=O)[C@@H]1C[C@H](Oc2cccnc2)CN1C(=O)c1cnccc1C | 2% |
| COc1ccc(S(=O)(=O)NC[C@@H]2C=C(C)[C@H](CC(=O)N3CCN(c4ccccn4)CC3)C[C@H]2C(C)C)cc1 | -17% |
| Cc1ccc(C(=O)NCCn2ccn3nc(-c4ccc(C)cc4C)cc3c2=O)cc1 | 4% |
| CC(C)CNC(=O)C1(CCO)CCN(Cc2ccccc2)C1 (stereo unspecified) | -1% |
| COCc1cc(=O)n(CC(=O)Nc2ccccc2OC)c(N2CCOCC2)n1 | -10% |
| CC[C@@H](NC(=O)Cc1[nH]nc2ccccc12)C1CC(O)C1 (stereo partly specified) | 14% |
| COCc1nc(C2CC(N)C2)cc(N2CCC3(CC2)CNC(=O)O3)n1 (stereo unspecified) | 5% |
| COc1ccc(OCC2(C)COc3ccc(C(=O)N4CCN(C)C(=O)C4)cc3N2)cc1 (stereo unspecified) | -7%[70.6 µM] |
| O=C(Nc1ccc(N2CCC(NC3Cc4ccccc4C3)CC2)cc1)C1CCCC1 | 8% |
| O=C(Cc1cccs1)NC1CCN(c2cc(C(F)(F)F)ncn2)CC1 | 1% |
| NC(=O)[C@@H](Cc1ccccc1)NC(=O)C1=C[C@@H](NC(=O)CS(=O)(=O)c2ccccc2)[C@@H](O)[C@H](O)C1 | 5% |

Going on with the list:
| SMILES | NPR1 antag |
| --- | --- |
| C=CCNC(=O)N1CC[C@H]2CC(=O)N(C3CCCCC3)CC[C@H]2C1 | 2%[70.6 µM] |
| COc1ccc(C(=O)N2CCC(Cn3c(C)cnc3-c3cccnc3)CC2)c(OC)c1 | 0% |
| COc1ccc(CN2CCCC3(C2)NC(=O)c2ccccc2O3)cc1 (stereo unspecified) | -3% |
| CC1(c2ccccc2)N(Cc2ccc(O)cc2)C(=O)OC12CCN(C(=O)c1ccccc1)CC2 (stereo unspecified) | 1% |
| O=C(c1cc2cn(C3CC3)cc2s1)N1CCN(c2ccccn2)CC1 | -18% |
| CCCN1CC(Oc2cccc(C(=O)N3CCOCC3)c2)C1 | 11% |
| O=C(NCc1cccc(F)c1)N1CCCC(Cn2cnc3cccnc32)C1 (stereo unspecified) | 4% |
| O=C(NCCC1CCN(C(=O)Nc2ccccc2)CC1)c1ccc(F)cc1 | -14% |
| CCn1nccc1C(=O)N1CCC(c2noc(-c3cnccn3)n2)C1 (stereo unspecified) | -8% |
| Cc1ccc2nc3n(c2c1)[C@@H](CNS(=O)(=O)c1ccc(C#N)cc1)COC3 | -6%[70.6 µM] |
| COc1cc(CN(C)C2CCOc3ccccc32)ccc1F (stereo unspecified) | -1%[70.6 µM] |
| NC(=O)CCNC(=O)C1=C[C@@H](NC(=O)Nc2ccc(F)cc2F)[C@@H](O)[C@H](O)C1 | 8%[70.6 µM] |
| O=C(C1CCCC1)N1CCC(C(=O)N2CCCN(Cc3cccnc3)CC2)CC1 | 2% |
| CN1Cc2ncnc(N3CCN(Cc4ccccc4)CC3)c2CN(c2ccc([N+](=O)[O-])cc2)C1=O | 0% |
| COCCOC1CCN(C(=O)c2ccccc2)CC1 | -2% |

Gathered by group, those above containing an NH in an aromatic ring
| SMILES | NPR1 antag |
| --- | --- |
| COC[C@@H]1CCCN1Cc1cc2cc3c(cc2[nH]c1=O)OCO3 | 2% |
| CC(C)C[C@@H]1N[C@H](C(=O)NCc2ccco2)Cc2c[nH]c3cccc1c23 | 4%[70.6 µM] |
| CCCc1cc(CN(C)C(=O)c2cn(CC(=O)N(CC)CC)nn2)[nH]n1 | 2% |
| CC[C@@H](NC(=O)Cc1[nH]nc2ccccc12)C1CC(O)C1 (stereo partly specified) | 14% |

Remaining list, next part
| SMILES | NPR1 antag |
| --- | --- |
| COc1ccc(-c2nc3c(C)cccc3cc2CN2CCC[C@H]2CO)cc1OC | -7% |
| Cc1cc(C)cc(NC2=N[C@H]3[C@@H](O)[C@H](O)C[C@H](C(=O)N4CCC(C(N)=O)CC4)[C@H]3S2)c1 | 5% |
| Cc1noc(C)c1CC(=O)N1CCCn2cc(-c3ccccc3F)nc21 | 3% |
| COCCCNC(=O)C1(C)CN(Cc2ccccc2)Cc2ccc(NCC(C)C)nc21 (stereo unspecified) | 5%[70.6 µM] |
| CC(CCc1ccccc1)NC(=O)CC(c1cccc2c1OCO2)c1c[nH]c2ccccc12 (stereo unspecified) | 1% |
| Cc1ccc(Cn2cccc2-c2nc(-c3ccc(F)cc3)no2)cc1 | 4% |
| CC(C)N1CC[C@H](c2nnc(-c3ccccc3F)o2)C1 | 3%[70.6 µM] |
| CC1CN(c2ccc(Cl)cc2)C(=O)CN1C(=O)CCn1cccc1 (stereo unspecified) | -2% |
| Cc1nc(C)c(C(=O)N2CC3CC(C2)[C@H]2CCCC(=O)N2C3)s1 (stereo partly specified) | -3% |
| CCOc1ccc2c(n1)CCN(C(=O)c1cccc(OC)c1OC)C2 | -4% |
| COc1cccc(CNC(=O)[C@@H]2C[C@@H](O)CN2C2CCN(C(=O)CCCc3ccccc3)CC2)c1 | 1% |
| O=C(C1CC1)N1CCC(N2C(=O)C(OCC3CC3)C23CCOCC3)CC1 (stereo unspecified) | 0% |
| CCCN1C(=O)CCc2cc(NC(=O)c3ccc(OC(F)(F)F)cc3)ccc21 | ? |
| CN1CC2(CCCN(C(=O)c3cn(C)c4ccccc34)CC2)OC1=O (stereo unspecified) | 3% |
| CSc1ccc(-c2noc(-c3nnn4c3COC(c3ccc(C)cc3C)C4)n2)cc1 (stereo unspecified) | 5% |

Going on with the list:
| SMILES | NPR1 antag |
| --- | --- |
| CN(C)C[C@H]1C[C@@H](CO)CN(C(=O)c2cc(-c3ccccc3F)n[nH]2)C1 | 1% |
| CC(=O)N1CCC(N2CC[C@H](CO)[C@H](NC(=O)C3CC3)C2)CC1 | 4% |
| CCc1nc(CN2CCCC(CO)(CC3CC3)C2)cs1 (stereo unspecified) | -2% |
| Cc1nn2c(c1-c1ccccc1C(C)C)N(Cc1ccc3c(c1)CCO3)CCC2 | -21%[70.6 µM] |
| O=C(CCC1CCN(C(=O)CCc2c[nH]c3ccccc23)CC1)NCc1cccnc1 | 4% |
| O=C(Cn1cccc1-c1nc(-c2ccccc2)no1)NC1CCCCC1 | 3% |
| COc1ccc2nc(NC(=O)Cn3nc4c(cc3=O)CCCC4)sc2c1 | -2% |
| CCc1noc(-c2ccn3c(CNC(=O)c4ccc(F)cc4)nnc3c2)n1 | -1% |
| O=C1NCCOCCCN(C(=O)c2ccsc2)[C@H]2CCCC[C@@H]12 | -2% |
| O=C1NC[C@@H](CCC(=O)N2CCCC2)N2C[C@@H](NCc3ccc(F)cc3)C[C@@H]12 | 1%[70.6 µM] |
| Cc1noc(C)c1-c1cc2cc(CN(C)C)oc2c(N2CCN(Cc3ccccc3)CC2)n1 | -3% |
| COc1cc2c(cc1OC)C(CNC(=O)c1ccc(C)cc1)N(C(=O)NC(C)C)CC2 (stereo unspecified) | -1% |
| CCCS(=O)(=O)N1CC[C@@H]2COCCN(Cc3ccccc3)[C@@H]2C1 | 6% |
| O=C(N[C@@H]1CN(C(=O)Nc2ccccc2)CCC[C@H]1O)c1ccc(OCc2ccccc2)cc1 | 2% |
| COc1ccccc1C(=O)N[C@H]1[C@H](O)[C@H](O)C[C@@H]1c1ccc(N2CCOCC2)nc1 | -1%[70.6 µM] |

Some of the entries so far, with values ahead of the structure.
| NPR1 antag | SMILES |
| --- | --- |
| -1% | O=C1CC(c2ccccc2)N(Cc2ccncc2)CCCN(C(=O)CC2CCCC2)CCN1 (stereo unspecified) |
| 1%[70.6 µM] | O=C(Nc1ncc(-c2ccccc2)c2c1OCC2)c1ccncc1 |

(next part)
| SMILES | NPR1 antag |
| --- | --- |
| O=C(c1ccc2ncccc2c1)N1CCC2(CC1)Nc1ccccc1NC2=O | -2% |
| COc1ccccc1C(=O)N[C@@H]1CN(c2ccccn2)C[C@H]1CN(C)C | 4% |
| COc1cccc([S+](=O)([O-])N2CCC3(CC2)C(=O)Nc2ccccc23)c1 | 13µM* |
| Cc1ccc(NC(=O)N2CCC(CCNC(=O)c3ccsc3)CC2)cc1 | 1% |
| Cc1noc(-c2cn(C3CCN(C(=O)c4sccc4C)CC3)nn2)n1 | 18% |
| COc1ccc(C2(C(=O)N3CCN4CCS(=O)(=O)N(C5CC5)C(=O)C4C3)CC2)cc1 (stereo unspecified) | 0% |
| COCC1(CNCc2c(C)noc2C)C[C@@H](O)[C@@H](O)C1 (stereo partly specified) | 6%[70.6 µM] |
| NC(=O)c1cc[nH]c1C1CCCN(C(=O)CCc2nc3ccccc3s2)C1 (stereo unspecified) | 7% |
| CCC1c2nccn2CCCN1C(=O)c1c(C)noc1C (stereo unspecified) | -12% |
| COc1ccc2c(c1)CCN=C2C[C@H]1CN(C(=O)c2cccs2)CC[C@H]1CC(=O)O | -11%[70.6 µM] |
| Cc1nc(N2CCC(NC(=O)Cc3ccc(F)cc3)CC2)cc(C(F)(F)F)n1 | -1% |
| CC(=O)N1CC2(Cc3ccccc31)CN(C(=O)c1ccccc1F)C2 | 0%[70.6 µM] |
| CNC(=O)[C@@H]1C[C@H](n2cc(C(C)(C)NC(=O)c3cccc(F)c3F)nn2)CN1 | 0% |
| O=C(N[C@@H]1CCOC[C@H]1OCCO)c1cc(C2CC2)nc2ccccc12 | 2% |
| CCc1cccc(NC(=O)N2CC(c3nnc(C(C)C)o3)C3(CCOCC3)C2)c1 (stereo unspecified) | -2% |
| COc1ccc(NC(=O)N2CC[C@@H](CO)N(C)c3cccnc3C2)cc1 | 2%[70.6 µM] |
| CC1=C[C@@H](CNS(C)(=O)=O)[C@H](C(C)C)C[C@H]1Cc1nc2ccc(F)cc2[nH]1 | ? |
